Screens from PubChem BioAssay.
Vaccinia mCherry: vaccinia inhibition (mCherry reporter); Potency, µM (top dose mostly 36.5 µM), inactives show at the highest dose activity change, negative = inhibition, usual class: inhibitors; 310,000 tested, 0.63% active; Vaccinia virus mCherry reporter infection, fluorescence; about a quarter of the inactives have no number; active = well fitted inhibition curve with a large enough effect; inconclusive = small, poorly fitted or top-dose-only effect; inactive = no such curve, though single readings can be large or run the other way; tested in A549 cells; also: nearly all actives have a fitted effect of over 35% in size; inactives centre near -10
Vaccinia Venus: inhibitors of vaccinia virus (Venus reporter). AID 720580. Potency, µM (top dose mostly 36.5 µM), for the others: at the top dose activity change, negative = inhibition, usual class: inhibitors. Vaccinia virus Venus reporter expression, fluorescence. 330,000 tested, 0.46% active; active means well fitted inhibition curve with a large enough effect; inconclusive means small, poorly fitted or top-dose-only effect; inactive means no such curve, though single readings can be large or run the other way; tested in A549 cells; also: nearly all actives have a fitted effect of over 30% in size; inactives centre near -10
An asterisk follows results filed as active; i = inactive; ? = inconclusive; · = not tested or not shown; & = joins results of further samples; [ ] = remark or other dose. % is scaled to controls: 0 for no effect and ±100 for the full control effect; potency is read from the fitted curve at half-maximal effect.

| Molecule | Vaccinia mCherry | Vaccinia Venus |
| --- | --- | --- |
| CC(C)N(C(=O)CSc1nnc(CN2CCCCCC2=O)n1-c1ccccn1)C(C)C | i | -1% |
| C=CCN(CC=C)C(=O)C(=O)c1cc(C)n(-c2ccc([N+](=O)[O-])cc2)c1C | -20% | -7% |
| CCc1nnc(NS(=O)(=O)c2ccc(N3C(=O)c4ccccc4C3=O)cc2)s1 | i | 1% |
| Cc1nc2ccn(Cc3ccccc3)c(=O)c2cc1C(=O)N1CCN(c2ccc(F)cc2)CC1 | -24%&-23% | -24%&-19% |
| CCCOc1ccc(NC2=CC(=O)CC(C)(C)C2)cc1 | -7% | -5% |
| CCCOc1ccc(C(=O)Nc2ccc(Cl)cn2)cc1 | · | -24% |
| COc1ccc(NC(=O)CN2CCN(c3ccccc3)CC2)cc1 | -8% | -16% |
| c1ccc(-c2cc(-c3ccccc3)ncn2)cc1 | -13% | -14% |
| COc1cccc(C(=O)Nc2nc(-c3ccc(S(=O)(=O)N4CCOCC4)cc3)cs2)c1 | -25% | -26% |
| CCOC(=O)N1CCN(S(=O)(=O)c2ccc(C(=O)N(CCCN(C)C)c3nc4cc(OC)ccc4s3)cc2)CC1 | -27% | -18% |
| C=CCSc1nnc(NC(=O)CSc2ccccn2)s1 | · | -26% |
| Cc1ccc(NC(=O)c2ccc(NC(=O)c3ccccc3)cc2)cc1C | ? | 10µM* |
| COc1ccc(C(=O)NCCn2ccc3ccccc32)cc1 | · | ? |
| Cc1ccc(/C=N/NC(=O)CSc2ccccn2)o1 | i | -4% |
| O=C(NCC(=O)N(Cc1ccco1)C(C(=O)NC1CCCCC1)c1ccncc1)c1cccs1 (stereo not drawn) | 24% | -10% |

5 records drawn at random from the list so far:
| Molecule | Vaccinia mCherry | Vaccinia Venus |
| --- | --- | --- |
| c1ccc(-c2cc(-c3ccccc3)ncn2)cc1 | -13% | -14% |
| CCCOc1ccc(NC2=CC(=O)CC(C)(C)C2)cc1 | -7% | -5% |
| Cc1ccc(NC(=O)c2ccc(NC(=O)c3ccccc3)cc2)cc1C | ? | 10µM* |
| COc1ccc(NC(=O)CN2CCN(c3ccccc3)CC2)cc1 | -8% | -16% |
| C=CCSc1nnc(NC(=O)CSc2ccccn2)s1 | · | -26% |

Additional results follow.
| Molecule | Vaccinia mCherry | Vaccinia Venus |
| --- | --- | --- |
| CCCCN(CCCC)C(=O)C[n+]1cccc(/C=N/O)c1 | i | 0% |
| CCOC(=O)c1cc2occc2n1CC(=O)NC1CCCCC1C (stereo not drawn) | -4% | -1% |
| OCCC1CN(Cc2ccon2)CCN1Cc1ccccc1 (stereo not drawn) | -27% | -9% |
| Cc1ccc2nc(NC(=O)c3ccc(OCC4CCCO4)cc3)sc2c1 (stereo not drawn) | -17% | -11% |
| COc1ccccc1NC(=O)c1oc2ccccc2c1NC(=O)c1ccccc1C(F)(F)F | ? | ? |
| CN(C(=O)c1ccc([N+](=O)[O-])cc1)c1ccccc1C(=O)NCc1ccccc1 | -13% | -13% |
| Cc1[nH]c2ccccc2c1C(Nc1nccs1)c1ccncc1 (stereo not drawn) | i | -9% |
| CC(=O)N1CCCc2cc(S(=O)(=O)N3CCN(c4ccccc4F)CC3)ccc21 | -5% | -12% |
| O=C1CCC(=O)N1CCSC(=S)N1CCSCC1 | i | -6% |
| N/C(=N\OCc1ccc([N+](=O)[O-])cc1)c1ccncc1 | i | 3% |
| C/C(Cn1cnc([N+](=O)[O-])n1)=N\NC(=O)c1ccncc1 | -15% | 0% |
| COc1cc(OC)c(NC(=O)/C=C/C(=O)O)cc1Cl | i | 8% |
| Cc1c(NC(=O)CN2c3ccccc3CC2C)c(=O)n(-c2ccccc2)n1C (stereo not drawn) | -19% | -6% |
| CC(=O)Nc1ccc(N2CCCC2)cc1 | i | -18% |
| CCN1C(=O)[C@@H]2[C@@H](c3ccc(-c4ccc(OC)cc4)c(OC)c3)N3CCCC[C@@]3(C(=O)OC)[C@@H]2C1=O | -6% | -22% |
| Cc1ccc(NC(=O)c2ccc(OC(F)F)cc2)cc1S(=O)(=O)N(C)C | ? | -21% |
| Brc1ccc2ncnc(Nc3cccc4ccccc34)c2c1 | -22% | -29% |
| Cc1ccc(NCC(=O)N/N=C/c2cc(O)ccc2[N+](=O)[O-])cc1 | -2% | -10% |
| OC(COC(c1ccc(F)cc1)c1ccc(F)cc1)CN1CCCC(C(F)(F)F)C1 (stereo not drawn) | -13% | -6% |
| CC(c1ccc(F)cc1)n1c(-c2ccc3ccccc3n2)n[nH]c1=S (stereo not drawn) | -21% | -12% |
| CCN(CC)c1ccc(/C=N/NC(=O)c2c(Cl)c(C)nn2C)cc1 | -5% | -26% |
| CCc1ccc(NC(=O)CN2C(=O)C(c3ccc(C)cc3)=NC23CCCCC3)cc1 | -14% | -9% |
| CCn1c2ccccc2c2cc(CN3CCN(C(=O)c4ccco4)CC3)ccc21 | · | -25% |
| Cc1nnc(N2CCN(c3ccccc3F)CC2)c2c1nnn2Cc1ccccc1Cl | -16% | -26% |
| O=C(Nc1ccccc1)c1sc(N2CCOCC2)nc1-c1ccccc1 | -18% | -15% |
| COc1cc2c(cc1NC(=O)COc1cc(C)ccc1C)oc1ccccc12 | -12% | -7% |
| COc1ccc(N2C(=O)c3ccccc3S2(=O)=O)cc1 | -18% | -5% |
| COc1ccc(OCC(=O)OCCNC(=O)c2cccnc2)cc1 | i | -17% |
| COc1ccc2c(c1)C(=O)N(c1ccccc1C)C(=O)C2(C)C | i | -1% |
| Cc1ccc(NC(=O)N2CC=C(c3c[nH]c4ccccc34)CC2)cc1Cl | -22% | -14% |
| Cc1ccc(-n2ncc(C(=O)NCC3CCN(C4CCCC4)C3)c2C2CCN(C(=O)OC(C)(C)C)CC2)cc1 (stereo not drawn) | 0%[7.34 µM] | -18%[7.34 µM] |
| CCOC(=O)C1=C(CSc2nc3c(cc2C#N)CN(C)CC3)OC(N)=C(C#N)C1c1ccc(Cl)cc1 (stereo not drawn) | · | -1% |
| CCCC1NC(=O)c2cc3ccccc3cc2-n2c1nc1cc(F)ccc1c2=O (stereo not drawn) | -7% | ? |
| COc1ccccc1-c1nc2cc(NC(=O)c3ccccc3Cl)ccc2o1 | -9% | -4% |
| Cc1ccc(N2CCN(C3C(=O)Nc4ccccc4-n4nnnc43)CC2)cc1 (stereo not drawn) | -29% | -16% |
| Cc1ccc(S(=O)(=O)N(C)C[C@@H]2OCc3ccccc3-c3c(n(C)c4ccccc34)C(=O)N([C@H](C)CO)C[C@@H]2C)cc1 | -14% | ? |
| COC(=O)c1sc(=S)n(-c2ccc(Cl)cc2)c1C | · | -9% |
| NS(=O)(=O)c1ccc(CNS(=O)(=O)c2cccc3nonc23)cc1 | 0%[7.34 µM] | -5%[7.34 µM] |
| CCCC1(C(=O)OCC)NC(c2ccc(N(C)C)cc2)C2C(=O)N(c3ccc4c(c3)OCCO4)C(=O)C21 (stereo not drawn) | · | -4% |
| CC(C)CN(C(=O)c1ccc(N2CCCC2=O)cc1)C1CCS(=O)(=O)C1 (stereo not drawn) | -6% | 6% |
| O=C(NNC(=O)c1ccc2c(c1)OCO2)NC1CCCCC1 | -5% | -18% |
| COc1cc(-c2ccc3c(=O)c4ccccc4sc3c2)cc(OC)c1OC | -33% | 14µM* |
| CC(C)NC(C)C(=O)C12CC3CC(CC(C3)C1)C2 (stereo not drawn) | i | -8% |
| CN(CC(=O)Nc1ccc(F)cc1)C(=O)COC(=O)CNC(=O)c1ccc(Cl)cc1Cl | i | -7% |
| Cc1cccc(-c2cnc(C(O)Cc3ccccc3)[nH]2)c1 (stereo not drawn) | -4% | -13% |
| CCOc1ccc(CNC(=O)c2ccc(-c3nc(CSc4ccc(C)cc4)c(C)o3)cc2)cc1 | 0% | -1% |
| C=C1CCN([C@@H](C)C(=O)NCc2ccc(Cl)cc2)S(=O)(=O)c2ccccc21 | 0% | -22% |
| O=[N+]([O-])c1cc(S(=O)(=O)Nc2ccccc2)ccc1NCc1cccnc1 | -22% | -22% |
| C[C@@H]1CN([C@H](C)CO)C(=O)c2cc(C#CC3CC3)cnc2O[C@H]1CN(C)S(C)(=O)=O | -4% | -12% |
| COc1ccc(CC(NC(C)=O)C(=O)NC2CCN(S(=O)(=O)c3ccc(NC(C)=O)cc3)CC2)cc1OC (stereo not drawn) | -26% | -9% |
| C=CCOC(=O)C1=C(C)NC(=O)NC1c1ccc(Cl)cc1 (stereo not drawn) | ? | -13% |
| Cc1cccc(C)c1NC(=O)C(C1CC1)n1c(=O)c(-c2ccccc2)nc2ccccc21 (stereo not drawn) | -7% | -13% |
| O=C(CSc1ncnc2ccccc12)c1ccc2c(c1)OCCO2 | ? | ? |
| COc1cccc(C2=CC(=O)C[C@H](c3ccc(Cl)cc3)C2)c1 | -5% | -21% |
| CCOC(=O)N1CCC2(CC1)CC(=O)c1c(ccc3oc(C(=O)O)c(C)c13)O2 | -5% | -15% |
| Cc1cccc(NS(=O)(=O)c2ccc(C(=O)N3CC(C)OC(C)C3)cc2)c1C (stereo not drawn) | -21% | -14% |
| O=C(CCCn1c(=O)oc2ccccc21)Nc1cccnc1 | i | -12% |
| Cc1cc(C)nc(NS(=O)(=O)c2ccc(NCN3C(=O)c4ccccc4C3=O)cc2)n1 | ? | 1% |
| CC[C@H]1C/C=C\Cc2ccccc2[C@@H](C(=O)C[C@@H](O)CC(C)=O)OC1=O | -21% | -29% |
| O=C(O)CCn1c(=O)n(CCC(=O)O)c(=O)n(CCC(=O)O)c1=O | -14% | -15% |

The list goes on:
molecule | Vaccinia mCherry | Vaccinia Venus
C=CC[C@]12C=C(OC)C(=O)C=C1O[C@@H](c1ccc3c(c1)OCO3)[C@H]2C | 20% | 34%[activator]
COC(=O)c1oc2ccc(Br)cc2c1NC(=O)c1ccccc1 | · | -13%
CCCNS(=O)(=O)c1ccc(Oc2ncc(C(F)(F)F)cc2Cl)cc1 | i | -9%
O=C(NCc1cccnc1)c1cccc(NS(=O)(=O)c2ccc(Br)cc2)c1 | ? | ?
O=C(Nc1ccc(Nc2ccccc2)cc1)C(Cl)(Cl)Cl | -28% | -12%
COc1ccc(OC)c(C=Nc2ccccc2-c2nc3ccccc3[nH]2)c1 | -17% | -13%
COc1ccc(C)cc1NC(=O)CN(c1cc(C(F)(F)F)ccc1Cl)S(C)(=O)=O | -6% | -5%
COC(=O)c1ccccc1NC(=O)CSc1ccccn1 | -7% | -10%
N#CCC(=O)N/N=C1\CCCCC1C1CCCCC1 (stereo not drawn) | -13% | -11%
Cc1cccc(N2CCN(C(=O)C3CCCN(C(=O)c4cc5sccc5n4C)C3)CC2)c1C (stereo not drawn) | -1% | -5%
CCc1ccc(-c2cc(C)no2)cc1S(=O)(=O)N1CCOc2ccc(C)cc21 | i[7.34 µM] | -14%[7.34 µM]
CCOC(=O)C1CCCN(c2ccc(NC(=O)c3snc4c(=O)[nH]c(C)nc34)cc2)C1 (stereo not drawn) | -2% | 4%

Taken from the listing (3 entries):
molecule | Vaccinia mCherry | Vaccinia Venus
O=C(NCc1cccnc1)c1cccc(NS(=O)(=O)c2ccc(Br)cc2)c1 | ? | ?
O=C(Nc1ccc(Nc2ccccc2)cc1)C(Cl)(Cl)Cl | -28% | -12%
COc1ccc(OC)c(C=Nc2ccccc2-c2nc3ccccc3[nH]2)c1 | -17% | -13%

The listing continues:
molecule | Vaccinia mCherry | Vaccinia Venus
Cc1ncoc1C(=O)N1CCCC(CCC(=O)NCc2ccccc2F)C1 (stereo not drawn) | -6% | -18%
O=[N+]([O-])c1ccc(Oc2ccc(F)cc2Br)c2ccncc12 | · | ?
COc1cc(NC(=O)COC(=O)/C=C/c2c(C)nn(-c3ccc(F)cc3)c2Cl)cc(OC)c1 | i | -6%
COc1ccc(N(CC(=O)NCCSCc2cccc(Cl)c2)S(C)(=O)=O)cc1Cl | -6% | -11%
O=C(NCCC1CCCCN1S(=O)(=O)c1cccs1)C(=O)Nc1ccccc1F (stereo not drawn) | -16% | -14%
C=CCn1cccc(C(=O)Nc2ccc(OC)c(OC)c2)c1=O | 4% | 6%
Cc1c(CC(=O)NCCCC(=O)O)c(=O)oc2cc3occ(-c4ccccc4)c3cc12 | i | -12%
O=C(Nc1cccc(F)c1)c1ccc(CSc2ccccc2)o1 | -5% | 4%
O=C(O)C[C@H]1c2ccccc2S(=O)(=O)N1C1CCCC1 | -12% | -8%&-21%
Cc1ccc2c(c1)N(C(=O)CCC(=O)N1CCC(C(N)=O)CC1)CCO2 | 20% | 1%
CCOC(=O)C1CCN(C(=O)COC(=O)c2c(C)c(CC)nc3ccccc23)CC1 | -14% | -8%
CCSc1nnc(NC(=O)C2CC=CCC2C(=O)O)s1 (stereo not drawn) | -2% | -16%
COc1ccccc1N1CCN(C(=O)c2nn(-c3ccc(C)cc3)c(=O)n(C)c2=O)CC1 | -6% | -15%
NC(=O)Cn1c(S(=O)(=O)Cc2ccccc2)nc2ccccc21 | i | -10%
Cn1c(=O)c2cc(NC(=O)NCCc3cccs3)ccc2n1-c1ccc(C(C)(C)C)cc1 | 26% | -12%
Cc1oc(-c2ccccc2)nc1C(=O)OCC(=O)NC(=O)NCC(C)C | -9% | -10%
ClC(Cl)(Cl)C1=NCc2nnn(Cc3ccccc3)c2N1 | 9% | 6%
CN(Cc1ccccc1)C(=O)COC(=O)c1cc(=O)c2ccccc2o1 | -14% | -12%
Cc1ccc(S(=O)(=O)N2CCN(C(=O)c3cc(S(=O)(=O)N(C)C)ccc3N3CCCC3)CC2)cc1 | -10% | 0%
O=C1CC(N2CCC(C(=O)N3CCCCC3)CC2)C(=O)N1 (stereo not drawn) | · | -28%
CCNc1ccc(S(=O)(=O)N(C)C)cc1NCC(=O)Nc1ccccc1F | i | -3%
